Assay outcomes deposited in PubChem BioAssay by ICCB-Longwood Screening Facility, Harvard Medical School.
GIV Gai3 FP: inhibitors of GIV GBA-motif binding to rat Galpha-i3; P08753; Galpha-i3/FITC-GIV peptide fluorescence polarization, 90 min; active compounds read low; scaled: aluminum fluoride 0%, vehicle 100%; percent of control (FP), % (no concentration beside the values); hit rate 0.42% among 210,000; AID 1224905;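 active = replicate mean at 85% of control or lower, very high polarization wells dropped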;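 also: wells of about 15 µL received 100 nL stock; the first replicate is given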
Target sequence (P08753 whole entry, looked up): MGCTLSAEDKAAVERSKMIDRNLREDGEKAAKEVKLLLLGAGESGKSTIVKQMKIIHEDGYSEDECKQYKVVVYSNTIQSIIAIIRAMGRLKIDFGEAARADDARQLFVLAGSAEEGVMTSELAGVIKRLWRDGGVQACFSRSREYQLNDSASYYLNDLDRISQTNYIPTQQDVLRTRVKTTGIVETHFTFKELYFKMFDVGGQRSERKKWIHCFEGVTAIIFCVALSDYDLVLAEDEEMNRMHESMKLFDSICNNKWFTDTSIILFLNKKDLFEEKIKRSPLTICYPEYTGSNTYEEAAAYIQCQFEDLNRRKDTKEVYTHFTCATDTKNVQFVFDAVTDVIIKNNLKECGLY
Sa growth 42C: S. aureus growth inhibition; hit rate 0.53% among 170,000; relative growth, % (concentration not given with the values); S. aureus RN4220 growth, OD600, 20 h, 42 °C; active compounds read low; AID 720641;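 active = growth at 42 °C up to 50% and 20 or more points under that at 30 °C, or under 10% at both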;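 also: 300 nL library stock went into each well; scaled to the means of positive and negative controls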
HCMV NEC inh: disrupts HCMV UL50-UL53 complex binding | HTRF UL50-UL53 interaction, normalized percent inhibition | inhibition, % (no concentration beside the values) | hit rate 0.15% among 190,000;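 active = both replicates at 50% or more, plus weaker picks with an unusually low signal ratio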;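 also: stock transfer was 100 nL into about 20 µL; 0% = negative control wells and 100% = wells with untagged competitor protein; inactives centre near -12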
Sa growth 42C second temp: also measured in Sa growth 42C; calls as there; relative growth, %; measured here: growth at 30 °C;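 optical density after 20 h as mean of two plates; 100% = untreated growth and lower means inhibition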
Active calls of the source: *; · = no result given; & = joins results of further samples.

SMILES	GIV Gai3 FP	Sa growth 42C	Sa growth 42C second temp	HCMV NEC inh
CCOc1ccc(NC(=O)c2ccc(NC(=O)N3CCSc4ncccc43)cc2)cc1	102	94	88	·
COC(=O)c1ccc(NCN2C(=O)S/C(=C/c3ccccc3Cl)C2=O)cc1	102	·	·	14
CCOC(=O)c1c(N)oc2c(-c3ccc(CC)cc3)c3c(C(=O)OCC)c(N)oc3cc12	112	93	94	·
O=C(Nc1nnnn1/N=C/c1ccccc1F)c1ccc(F)cc1	102	92	57	-26
CCCC(CC(=O)N1CCN(c2cccc(C)c2C)CC1)n1ccnc1 (configuration not stated)	·	72	30	3
Cc1cccc(-n2c(=O)c3[nH]c4ccccc4sc=3c2=O)c1	109	101	92	-28
COc1cc(/C=N/N2CC(=O)NC2=O)ccc1OCc1csc(C)n1	·	82	97	-57
Cc1ccc(Cn2c3ccccc3c3cn[nH]c(=O)c32)cc1	107	105	92	·
O=C(COc1ccc2oc3c(c2c1)CCCC3)Nc1cccc(Br)c1	97	99	76	-14
COc1ccccc1CCCN	108	70	95	-6
CC(CCc1ccccc1)NC(=O)C1=CCN(S(=O)(=O)c2ccc(F)cc2)CC1 (configuration not stated)	102	114	91	·
COc1cc(C)c(Cl)cc1S(=O)(=O)n1ccnc1	92	·	·	-10
COc1ccc(S(=O)(=O)NCCc2nnc3ccc(SCC(=O)Nc4ccccc4C)nn23)cc1	110	89	81	·
Cc1nc2c3ccccc3n(CCc3ccccc3)c2s1	103	35	38	-28
CC(=O)c1cc2c(cc1N/C(=N/S(=O)(=O)c1ccc(F)cc1)c1ccccc1)OCO2	102	83	88	·
Cc1c(Cl)cccc1-c1ccc(CNCC2CCCO2)o1 (configuration not stated)	105	·	·	-11
COc1ccc(CC(=O)NCCc2nc(-c3ccccc3)n[nH]2)cc1OC	103	·	·	-16
COc1cc(C(CC(=O)Nc2cc(C)ccn2)N2Cc3ccccc3C2=O)cc(OC)c1OC (configuration not stated)	106	105	90	·
CN(Cc1ccccc1)C(=O)COC(=O)c1ccc2ccccc2n1	·	116	85	-86
COc1ccc(CCNC(=O)Cn2c(=O)cc(C(F)(F)F)c3c(C)nn(C)c32)cc1OC	99	85	87	·
CCN1CCN(C(=O)C2CC(=O)N(CCc3ccc(C)cc3)C2)CC1 (configuration not stated)	106	111	94	4
COc1ccc(CNC(=O)c2oc3ccccc3c2C)cc1	·	104	97	-11
COC(=O)CSc1ncc(C#N)c(N)n1	132	87	102	19
COC(=O)c1cc(S(=O)(=O)N2CCCC2C(=O)Nc2cc(F)ccc2F)cn1C (configuration not stated)	97	·	·	11
CCN(CC)C(=O)COc1coc(CN2CCc3ccccc3C2)cc1=O	106	86	91	-33
COc1ccc(C(=O)N2CCCc3ccccc32)cc1	108	102	111	10
CC(C)c1cc(-c2nc(-c3ccc(Cl)cc3)no2)n[nH]1	104	89	93	·
CCOc1ccc(C2C(C(=O)Nc3cc(C)on3)c3ccccc3C(=O)N2CCN2CCOCC2)cc1 (configuration not stated)	103	89	70	-28
CCOC(=O)C1=C(C)OC(N)=C(C#N)C1c1ccc(Cl)cc1 (configuration not stated)	107	·	·	-10
CC(=O)Nc1ccc(NC(=O)CCC(=O)c2ccc(C)cc2)cc1	106	116	86	·
O=C(O)c1cc(C(=O)O)c(-c2ccccc2)c(C(=O)O)c1	105	113	96	-13
CN1C(=O)/C(=C/c2ccco2)SC1=Nc1cccc(C(=O)O)c1	103	110	75	-52
Cc1nc(C(F)(F)F)ccc1C(=O)NCc1ccc2c(c1)OCO2	99	120	87	-15
Cc1cc(C)cc(Nc2nccc(=O)[nH]2)c1	103	·	·	-23
COCCN(CCOC)Cc1c(O)ccc2c(=O)c(-c3ccc(OC)c(OC)c3)c(C(F)(F)F)oc12	98	·	·	-21
CCn1cc2nc(SCC(=O)Nc3ccc(OC)c(Cl)c3)n(Cc3ccc(OC)cc3)c(=O)c2n1	104	79	92	17
CCOC(=S)Nc1ccc(OC(F)(F)F)cc1	101	115	99	4
O=C(Nc1ccc(C(=O)N2CCCCC2)cc1)C1CCCCC1	98	108	90	-10
O=C(O)Cc1nonc1NCn1nnc2ccccc21	102	89	82	-17
CCOc1ccc(-c2c(C#N)c(N)nc(SCC(=O)c3ccc(O)c(O)c3)c2C#N)cc1	101	·	·	11

Compounds shown so far that have a Cl atom:
SMILES	GIV Gai3 FP	Sa growth 42C	Sa growth 42C second temp	HCMV NEC inh
COC(=O)c1ccc(NCN2C(=O)S/C(=C/c3ccccc3Cl)C2=O)cc1	102	·	·	14
COc1cc(C)c(Cl)cc1S(=O)(=O)n1ccnc1	92	·	·	-10
Cc1c(Cl)cccc1-c1ccc(CNCC2CCCO2)o1 (configuration not stated)	105	·	·	-11
CC(C)c1cc(-c2nc(-c3ccc(Cl)cc3)no2)n[nH]1	104	89	93	·
CCOC(=O)C1=C(C)OC(N)=C(C#N)C1c1ccc(Cl)cc1 (configuration not stated)	107	·	·	-10
CCn1cc2nc(SCC(=O)Nc3ccc(OC)c(Cl)c3)n(Cc3ccc(OC)cc3)c(=O)c2n1	104	79	92	17

The results go on.
SMILES	GIV Gai3 FP	Sa growth 42C	Sa growth 42C second temp	HCMV NEC inh
CCOC(=O)c1c(C)[nH]c(C)c1S(=O)(=O)N1CCC(C(=O)N2c3ccccc3CC2C)CC1 (configuration not stated)	101	·	·	-4
COC(=O)CNc1nc(Cl)nc(Nc2ccc(I)cc2C)n1	103	87	100	1
Cc1ccc(-c2nc(S(=O)(=O)c3ccccc3)c(SCC(N)=O)o2)cc1	101	107	98	·
O=S(=O)(c1ccccc1)C(/C=N\O)/C=C/c1ccccc1 (configuration not stated)	108	·	·	-8
COC(=O)C(CC(C)C)NC(=O)c1ccc(S(C)(=O)=O)cc1 (configuration not stated)	·	96	88	-29
CC(C)C(NC(=O)Cc1ccccc1)C(=O)N1CCN(c2cccc(Cl)c2)CC1 (configuration not stated)	·	85	83	-1
CCC(C)(C(=O)NC1CCCC1)N(Cc1cccs1)C(C)=O (configuration not stated)	100	105	84	-15
Cc1ccc(-c2n[nH]c3c2C(c2cccc(O)c2)N(c2ccc(Cl)cc2)C3=O)cc1 (configuration not stated)	100	·	·	-5
COCCNC(=O)C1CCN(Cc2cc3ccccc3n2Cc2ccc(C)cc2)CC1	99	116	74	·
O=C(CCC1CCCCC1)NCCC12CC3CC(CC(C3)C1)C2	99	117	90	·
Nc1cc2c(cc1-n1cccc1)OCCO2	107	90	76	-23
CCOc1ccc(NC(=O)CCS(=O)(=O)c2cc3c4c(c2)CCN4C(=O)CC3)cc1	99	85	90	·
COC(=O)C(CCCN1C(=O)c2ccccc2C1=O)(NC(C)=O)c1nn[nH]n1 (configuration not stated)	·	97	93	-15
O=C(NCCN1CCCc2ccccc21)Nc1ccc2c(c1)OCCO2	106	93	80	-28
Nc1cc(F)ccc1N1CCCCCC1	103	68	41	0
CCCCNC(=O)c1nc(-c2nn(-c3ccccc3)c(=O)n(CC)c2=O)no1	102	·	·	-92
O=C(COC(=O)c1ccccc1SCC(=O)N1CCCC1)Nc1nnc(-c2ccccc2)o1	·	138	70	6
COc1cccc(NC(=O)CSc2nc(O)c(C/C=C/c3ccccc3)c(=O)[nH]2)c1	107	121	77	-27
[O-][n+]1onc2c3nsnc3c(Br)cc21	101	92	25	-102
CCCCC(C(N)=O)N1C(=O)C2C3C=CC(C3)C2C1=O (configuration not stated)	·	105	84	-7
COCc1cc(C)n(CC(=O)OC)c(=O)c1C#N	108	95	100	-22
COc1ccc(CN(C)C(=O)/C=C/c2cn(CCC#N)c3ccccc23)cc1F	·	105	86	-19
COCCN(CCC(=O)N1CCNCC1)C(=O)c1ccccc1	97	·	·	-26
O=C(Cn1cnc2sc3c(c2c1=O)CCCC3)NCC(=O)N1CCN(c2ccc(F)cc2)CC1	101	·	·	-21
Cc1cc(C)nc(NS(=O)(=O)c2ccc(NC(=O)C(C)C)cc2)n1	101	·	·	-2
Cc1cc(-c2ccc(C)c(S(=O)(=O)N3CCc4ccccc4C3)c2)on1	105&104	102	116	14&-14
CCc1ccc2occ(CC(=O)Nc3ccc(C(=O)OC)cc3)c2c1	108	105	94	5
C=CCNC(=O)c1cc(C)no1	100	87	81	-1
CCCNC(=O)c1cccc(Nc2ccnc(-c3cccc(C)c3)n2)c1	101	·	·	-9
CC1Cc2cc(S(=O)(=O)CCC(=O)Nc3ccc(F)cc3)ccc2N1C(=O)C1CC1 (configuration not stated)	102	113	81	·
COc1cc(/C=C2/SC(=Nc3ccccc3)NC2=O)cc(Cl)c1O	205	·	·	-48
CC(=O)Nc1cc(C(=O)O)ccc1S(=O)(=O)c1ccc(Cl)cc1	100	95	88	-17
CC(=O)c1cccc(S(=O)(=O)NCCc2csc3nc(-c4ccc(F)cc4)nn23)c1	104	100	90	·
CCN=C1S/C(=C/c2ccc(OCC(=O)O)c(Cl)c2)C(=O)N1CC	·	101	95	-43
COc1ccc(S(=O)(=O)NCCc2sc(-c3ccccc3)nc2C)cc1F	103	101	78	·
CCOC(=O)c1c(C)n(C)c2ccc(OCC(O)CNc3ccccc3)cc12 (configuration not stated)	101	·	·	10
O=C(O)/C=C/C(=O)Nc1ccccc1	105	93	85	-23
CC1=CC(=O)C(C(=O)/C=C/c2ccc3c(c2)OCO3)C(=O)O1 (configuration not stated)	·	82	85	-18
COC(=O)c1ccc(C2C3=C(CC(C)(C)CC3=O)Nc3ccccc3N2C(=O)C(C)C)cc1 (configuration not stated)	106	105	79	·
S=C=Nc1ccc(Oc2ccccc2)cc1	·	117	96	9
CCCCc1ccc(-n2c(-c3ccc(F)cc3)coc2=O)cc1	101	89	90	-22
CCOC(=O)c1c(C)[nH]c(C)c1S(=O)(=O)N(C)CC(=O)N1CCc2ccccc2C1	109	·	·	13
CC1CC(C)CN(Cc2cn3c(-c4ccc(Br)cc4)nnc3s2)C1 (configuration not stated)	102	93	87	-26
CCCCn1c(O)c(N=NC(=O)c2ccccc2)c2ccccc21	·	3.7*	-0.1*	-16
Cc1ccc(Cl)cc1NC(=O)N1CCc2nc(N3CCCCC3)ncc2C1	113	·	·	-7
O=C(Nc1ccc(F)cc1Cl)C1CCCN(c2nc3cccnc3s2)C1 (configuration not stated)	104	·	·	-3
Cc1nc2nc(SCC(=O)NCCc3ccc(Cl)cc3)nn2c(C)c1Cc1ccccc1	101	89	85	-2
CSc1sc(Cl)c2c1C(=O)CCC2	100	103	76	-41
C#CCOc1c(Br)cc(C2C(C(=O)OC)=C(C)NC3=C2C(=O)c2ccccc23)cc1OCC (configuration not stated)	101	104	84	-26
CCOC(=O)c1c(NC(=O)c2ccccc2Cl)sc2c1CCCC2	110	92	97	·
(cont.)
SMILES	GIV Gai3 FP	Sa growth 42C	Sa growth 42C second temp	HCMV NEC inh
Cc1cccc(C(=O)N2CCc3cc(CNC(=O)c4ccco4)ccc32)c1	103	111	87	·
COc1ccc(-n2c(SCCC#N)nc3ccccc32)cc1	·	122	67	-11
Cc1cc(-c2cccc(S(=O)(=O)N3CCOCC3)c2)n2c(nc3ccccc32)c1C#N	·	84	96	-8
C#CCn1c(=NC(=O)CN2C(=O)CCC2=O)sc2c3ccccc3ccc21	96	99	76	-32
CCCNC(=O)Nc1ccc(-c2noc(-c3cc(C)cc(C)c3)n2)cc1	101	·	·	15
O=C(c1ccc(F)cc1)C1CCN(C(=O)NC2CCCCC2)CC1	101	115	84	-8
CS(=O)(=O)c1ccccc1	97	·	·	-8
CCCNC(=O)CN1C(=O)COc2ccc(S(=O)(=O)N3CCCC3)cc21	105	102	88	11
CCOc1ccc(CCNC(=O)c2ccc(C)c(-n3cnc4cccnc43)c2)cc1	105	114	98	·
COc1cccc(CNC(=O)c2[nH]c(C)c(C(=O)NC3CCCCC3)c2C)c1	107	83	97	3
Cc1ccc2c(c1)c(=O)c1ccccc1n2CC(=O)Nc1cc(Oc2ccccc2)cc([N+](=O)[O-])c1	104	·	·	-12
Cc1ccc(N(C)C(=O)c2cc(-c3cccnc3)on2)cc1	100	·	·	-12
O=C(Nc1ccncc1)c1ccc2c(c1)S(=O)(=O)c1ccccc1C2=O	·	81	88	-90
Nc1cccc(-c2nnc(-c3cccc(N)c3)o2)c1	105	93	91	-10
CCOC(=O)C1=C(CS(=O)(=O)c2ccc(F)c(C)c2)NC(=O)NC1c1ccc(F)c(F)c1 (configuration not stated)	102	106	91	-3
Cc1cccc(C(=O)Nc2nn3c(C)nnc3s2)c1	105	·	·	-12
Cc1sc(NC(=S)NC(=O)c2ccco2)c(C#N)c1C	99	97	99	1
NC(Cc1nc2ccccc2[nH]1)c1cccnc1 (configuration not stated)	102	66	28	-88
COc1ccc(OC)c(C(=O)c2c(N)c(-c3nc(-c4ccc(Cl)cc4)cs3)c3ccccn23)c1	87	·	·	-1
CN(CCC#N)C(=O)c1cc2cccnc2n(Cc2ccccc2)c1=O	99	85	89	-28
O=C(Cn1cnc2ccccc2c1=O)c1ccc2c(c1)OCCO2	·	103	97	-19

Compound profiles, from the list above.
CN(CCC#N)C(=O)c1cc2cccnc2n(Cc2ccccc2)c1=O as listed: GIV Gai3 FP: 99; Sa growth 42C: 85; Sa growth 42C second temp: 89; HCMV NEC inh: -28
CCOC(=O)C1=C(CS(=O)(=O)c2ccc(F)c(C)c2)NC(=O)NC1c1ccc(F)c(F)c1 (configuration not stated) as listed: GIV Gai3 FP: 102; Sa growth 42C: 106; Sa growth 42C second temp: 91; HCMV NEC inh: -3
Nc1cccc(-c2nnc(-c3cccc(N)c3)o2)c1 as listed: GIV Gai3 FP: 105; Sa growth 42C: 93; Sa growth 42C second temp: 91; HCMV NEC inh: -10
